Screens from PubChem BioAssay.
NS1 function inh: inhibitors of influenza NS1 protein function; S. cerevisiae slowed by influenza A NS1, growth recovery by OD600; Potency, µM (titrated, usually from 46.1 µM), for the others: at the top dose activity, positive = more growth; 270,000 compounds, 0.4% hits; AID 2326; active means well fitted rising curve with a large enough effect; inconclusive means small, poorly fitted or top-dose-only effect; inactive means no such curve, though single readings can be large or run the other way; further: nearly all actives have a fitted effect of over 50% in size
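A cell-based growth assay was used: compounds that relieve NS1-induced slow growth of budding yeast raise OD600. Assay medium was yeast nitrogen base with ammonium sulphate and -URA supplement, pH 6.0, with 2% galactose.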
SARS PLpro yeast: inhibitors of SARS-CoV papain-like protease in yeast; Potency, µM (titrated, usually from 32.9 µM), for the others: top-dose activity, positive = growth rescue; 330,000 compounds, 0.19% hits; S. cerevisiae expressing SARS-CoV PLpro, growth rescue; control for the full effect not named in the record; active means well fitted rising curve with a large enough effect; inconclusive means small, poorly fitted or top-dose-only effect; inactive means no such curve, though single readings can be large or run the other way; further: 0% is about no effect; nearly all actives have a fitted effect of over 55% in size; growth read by luminescence after 48 h
Cruzain inh Det: inhibitors of Trypanosoma cruzi cruzain with detergent. P25779. purified cruzain, Z-FR-AMC fluorescence, 0.01% Triton. Potency, µM, for inactives: max response, negative = inhibition, most hits filed as inhibitors. 200,000 compounds, 0.43% hits;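 further: plate controls were neutral wells for no effect and buffer without enzyme for full effect; nearly all actives have a fitted effect of over 40% in size; top concentration of the series not given in the record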
Target sequence (P25779 123-467 limits assumed): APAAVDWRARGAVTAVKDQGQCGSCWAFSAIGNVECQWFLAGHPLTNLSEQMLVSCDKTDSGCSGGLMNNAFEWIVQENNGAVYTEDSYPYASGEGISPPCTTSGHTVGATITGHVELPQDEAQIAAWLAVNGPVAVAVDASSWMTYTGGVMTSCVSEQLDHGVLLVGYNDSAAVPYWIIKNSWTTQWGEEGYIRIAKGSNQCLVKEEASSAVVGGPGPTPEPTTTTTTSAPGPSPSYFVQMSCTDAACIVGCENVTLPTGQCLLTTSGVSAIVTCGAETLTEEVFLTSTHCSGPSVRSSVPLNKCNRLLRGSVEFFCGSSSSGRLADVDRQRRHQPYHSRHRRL
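Cysteine protease activity tested under reducing, mildly acidic conditions (100 mM sodium acetate pH 5.5, 5 mM DTT) plus 0.01% Triton X-100. Cruzain 1.5 nM; substrate Z-FR-AMC 2 uM; 15 min compound preincubation at room temperature.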
Cruzain noTriton: blocks cruzain activity in detergent-free assay | P25779 | purified cruzain, Z-FR-AMC fluorescence, no detergent | Potency, µM, inactives show max response, negative = inhibition, usual class: inhibitors | 200,000 compounds, 2.3% hits | AID 1476;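 further: plate controls were enzyme without inhibitor for no effect and buffer without enzyme for full effect; nearly all actives have a fitted effect of over 40% in size; top concentration of the series not given in the record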
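Detergent-free condition (0.00005% Triton X-100) in acetate buffer pH 5.5 with DTT. 1.5 nM enzyme and compound were pre-mixed 15 min, then 2 uM Z-FR-AMC substrate added; reaction progress from fluorescence change between first and third reads (60 s).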
Marburg entry inh: inhibitors of Marburg virus binding or cell entry; Marburg virus pseudotyped entry inhibition, cell reporter; control for the full effect not named in the record; about a third of the inactives were read at about 46 µM; 300,000 compounds, 1.8% hits; Potency, µM (top dose mostly 37.8 µM), for inactives: at the highest dose activity change, negative = inhibition, hits mostly inhibitors; AID 540276; active = well fitted inhibition curve with a large enough effect; inconclusive = small, poorly fitted or top-dose-only effect, or effect the other way; inactive = flat fitted curve, though single readings scatter; tested in HEK293 cells; about a fifth of its hits are not listed in these tables; further: on the % scale 0 is the no-effect control and ±100 the full control effect; luciferase read-out
2A StopGo: lowers the luciferase signal of an FMDV 2A StopGo reporter. human cells with a luciferase reporter of 2A StopGo recoding; control for the full effect not named in the record. 410,000 compounds, 1.2% hits. Potency, µM (series often up to 57.9 µM), for inactives: at the top dose signal change, negative = less light; active = well fitted falling curve with a large enough effect; inconclusive = small, poorly fitted or top-dose-only effect; inactive = no such curve, though single readings can be large or run the other way; tested in HEK293T cells; further: on the % scale 0 is the no-effect control and ±100 the full control effect; nearly all actives have a fitted effect of over 45% in size; luciferase light after 4 h
RE007 growth inh: less growth of the S. pombe RE007 Vpr strain. AID 651644. Potency, µM (highest dose often 92.2 µM), inactives show top-dose activity change, negative = less growth. 360,000 compounds, 0.21% hits. S. pombe RE007 Vpr strain, BacTiter-Glo ATP luminescence, 24 h; control for the full effect not named in the record; active = well fitted falling curve with a large enough effect; inconclusive = small, poorly fitted or top-dose-only effect; inactive = no such curve, though single readings can be large or run the other way;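 further: on the % scale 0 is the no-effect control and ±100 the full control effect; nearly all actives have a fitted effect of over 50% in size; the assay follows cell death caused by Vpr and the record does not say whether a fall means rescue or toxicity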
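Fission yeast RE007 carrying one integrated HIV-1 vpr copy, seeded at OD 0.01 in PMG+AL medium with 23 nL pinned compound. Grown 24 h at 30 degrees; viability read by BacTiter-Glo luminescence after 5 min.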
Lassa entry inh: blocks Lassa virus binding to or entry into cells. Lassa virus pseudotype entry inhibition, cell reporter; control for the full effect not named in the record. Potency, µM (highest dose often 37.9 µM), for inactives: at the top dose activity change, negative = inhibition, actives largely listed as inhibitors. 300,000 compounds, 1.2% hits. AID 540256; active means well fitted inhibition curve with a large enough effect; inconclusive means small, poorly fitted or top-dose-only effect, or effect the other way; inactive means flat fitted curve, though single readings scatter; tested in HEK293 cells; further: on the % scale 0 is the no-effect control and ±100 the full control effect; nearly all actives have a fitted effect of over 50% in size; luciferase read-out
The depositor's hits bear a star; ? = inconclusive; . = no result given; & = joins results of further samples; [ ] = dose if it differs, or a comment. Unless noted, the call rests on the fitted dose curve; in most records, active means well fitted curve in the direction sought with a large enough effect; inconclusive means small, poorly fitted or top-dose-only effect, or another doubt; inactive means no such curve, though single readings can be large; an effect the other way counts as inactive or inconclusive. Potency means the concentration at half of the fitted maximal effect.

SMILES | NS1 function inh | SARS PLpro yeast | Cruzain inh Det | Cruzain noTriton | Marburg entry inh | 2A StopGo | RE007 growth inh | Lassa entry inh
O=C(CN1CCSC1=NCc1ccccc1)c1ccc(Cl)cc1 | ? | 4% | 0.5% | -2% | -24% | -11% | 14% | 15%
COc1cccc(-c2nnc(-c3ccccc3[N+](=O)[O-])o2)c1 | 6% | -1% | . | . | ? | 45%[activator] | -15% | 13%
CC1CCN(C(=O)CSc2nnc(N)s2)CC1 | 12% | 3% | . | . | 2%[46.1 µM] | 9% | 0% | 24%[46.1 µM]
O=C(Nc1ccccc1C(=O)OCC(=O)N1CCc2ccccc2C1)c1ccco1 | -87% | 1% | -5.4% | 13µM* | 22% | 3% | -1% | 17%
C=CCc1cccc(/C=N/NC(=O)CCC(=O)Nc2ccc(C)cc2)c1O | 6% | 30% | -2.5% | -8% | -28% | -18% | 12% | ?
COc1ccc(OCCC(=O)Nc2ccccc2)cc1 | 6% | -1% | . | . | . | 32%[activator] | 1% | .
CC(=O)N1CCN(c2nc3ccc(Br)cc3s2)CC1 | 0% | -6% | . | . | . | 23% | -26% | .
O=C(Cc1ccccc1)c1ccc(O)cc1 | . | . | . | . | 6%[46.1 µM] | 26% | -9% | 13%[46.1 µM]
CCOC(=O)C1CCN(c2cc3c(cc2NC(=O)c2cc(OC)ccc2Br)n(C)c(=O)n3C)CC1 | 23% | 3% | . | . | . | -30% | -8% | .
CCC(=O)N1CCc2cc(Br)cc(S(=O)(=O)CCC(=O)NCCc3ccccc3)c21 | -3% | 12% | -1.2%&-2.8% | -6%&12% | 4%[46.1 µM] | 0%&-1% | 3% | -15%[46.1 µM]
Cc1nc2c(-c3ccccc3)c(C)nn2c(C)c1CCC(=O)NC(C)CCc1ccco1 (stereo not drawn) | 1% | -2% | -5.0% | ? | 1% | ? | -3% | .
NC(=O)c1cc(-c2csc(NCCc3ccccc3)n2)ccc1O | 9% | -11% | . | . | ? | -12% | -14% | ?
O=S(=O)(Nc1cccc(-c2ccc3nncn3n2)c1)c1cc(F)ccc1F | . | -6% | . | . | -8% | 48%[activator] | 7% | -11%
CC(Oc1ccccc1Cl)C(=O)N1CCOCC1 (stereo not drawn) | 0% | 5% | -2.2% | 7% | 4% | -7% | 12% | ?
CCC1CCCCN1CCCNC(=O)c1ccc(CS(=O)(=O)c2ccc(Br)cc2)o1 (stereo not drawn) | 1% | ? | . | . | . | -14% | -4% | .
CCc1cc(C(=O)N=Nc2c(O)[nH]c3c(Br)cc(Br)cc23)c2ccccc2n1 | 25% | 4% | -5.0% | ? | -28%[46.1 µM] | ? | -4% | 2%
Cc1c(NC(=S)Nc2ccccc2)c(=O)n(-c2ccccc2)n1C | 14% | 13% | 1.9% | 8% | ? | 8% | -7% | 2%
CC(C)C(=O)N1c2ccccc2NC2=C(C(=O)CCC2)C1c1ccc(N(C)C)cc1 (stereo not drawn) | -10% | -3% | -3.2% | -6% | -4% | 17% | 2% | -2%
CCN1CCN(C(c2ccc(F)cc2)c2nnnn2Cc2ccc3c(c2)OCO3)CC1 (stereo not drawn) | 1% | 0% | . | . | ? | 4% | 4% | 14%
O=[N+]([O-])c1ccc2ncnc(Nc3ccc4c(c3)OCCO4)c2c1 | . | 2% | . | . | ? | -17% | 6% | 4%
Cc1ccc(C(NC(=O)N2CCN(C)CC2)C(Cl)Cl)cc1F (stereo not drawn) | . | 2% | . | . | 2%[46.1 µM] | -2% | -25% | 2%
COc1ccc(NC(=O)CN(C)C(=O)Cc2ccc(-c3ccccc3)cc2)cc1 | . | -1% | . | . | 9% | -8% | ? | -3%
O=C(N/N=C/c1ccc(Br)s1)c1cccc([N+](=O)[O-])c1 | 12% | -16% | -14% | 20µM* | ? | 8% | -29% | -15%
CC(C)Oc1ccc(CNS(=O)(=O)c2ccc3c(c2)C(C)(C)C(=O)N3C)cc1 | . | . | 0.0% | -12% | . | 4% | . | 1%[46.1 µM]
Cc1nn(C)c(C)c1CNC(=O)Nc1cccc(Cl)c1 | . | 1% | . | . | 2%[46.1 µM] | 50%[activator] | 38% | 3%
Fc1ccc(NC(=S)Nc2cccc3cnccc23)cc1 | . | -4% | . | . | -17%[46.1 µM] | -10% | -23% | .
CC(=O)NCCCc1nc2ccccc2n1Cc1cc(C)ccc1C | -4% | 0% | . | . | 7%[46.1 µM] | -6% | 15% | -2%
COc1ccccc1CNC(=O)CN1CCC(n2cnc3cc(F)ccc32)CC1 | -8% | -3% | -1.4% | -5% | -2% | -11% | -5% | 1%
CC(NC(=O)C1CCN(S(=O)(=O)c2cccc3cccnc23)CC1)c1ccccc1 (stereo not drawn) | -14% | -2% | . | . | . | -4% | -7% | .
O=[N+]([O-])c1ccc2nc(SCc3ccccc3Cl)sc2c1 | 2% | 0% | -3.5% | 2% | -7% | -1% | -8% | -1%
N#Cc1ccc(OCC(=O)Nc2cc(S(=O)(=O)N3CCCCC3)ccc2N2CCCCC2)cc1 | -2% | 18% | -1.8% | ? | 8% | -4% | 13% | 15%
COc1ccc(NC(=O)/C=C/c2ccc3c(c2)OCO3)cc1 | -5% | -1% | . | . | . | 7% | 2% | .
COc1ccc2nc(Nc3ccc4c(c3)OCO4)sc2c1 | ? | -11% | -3.4% | -23% | -27% | 54%[activator] | 22% | -18%
COc1ccc(OC)c(NC(=O)CSC2=Nc3ccccc3C3=NC(CCC(=O)NCc4ccco4)C(=O)N23)c1 (stereo not drawn) | . | . | -1.0% | 18% | . | ? | . | ?
CSc1cccc(NC(=O)C2CC(=O)N(Cc3ccccc3)C2)c1 (stereo not drawn) | 0% | 4% | . | . | -5%[46.1 µM] | 15% | 12% | 13%[46.1 µM]
O=C(Nc1ccc(Oc2ccccc2)nc1)C1CCCCN1Cc1ccc(OCCO)cc1 (stereo not drawn) | 21% | -7% | . | . | . | -5% | -7% | .
Fc1ccc(-c2csc3ncnc(N4CCN(Cc5ccccc5)CC4)c23)cc1 | 5% | ? | . | . | 2% | ? | 2% | -1%
O=C(Nc1ccc(N2CCCC2)cc1)c1ccc(Br)cc1 | 22% | 5% | . | . | . | 52%[activator] | -5% | .
COc1cccc(-n2c(-c3ccc(Cl)cc3)cc3c2CC(C)(C)CC3=O)c1 | . | . | -1.0% | 9% | -2%[46.1 µM] | -7% | . | 7%[46.1 µM]
COc1ccccc1NC(=O)Cn1nc(C)n2cccc2c1=O | -4% | -4% | -3.3% | 14% | -1%&-1%[46.1 µM] | -7%&-4% | 1% | 13%[46.1 µM]
N#C/C(=C\c1cc([N+](=O)[O-])c(N2CCCCC2)cc1N1CCCCC1)c1nn(-c2ccccc2)c(N)c1C#N | 20% | ? | 5.1% | 7.9µM* | 12% | -8% | 2% | -11%
O=c1nc(SCc2cccc(C(F)(F)F)c2)nc2ccccn12 | . | -5% | . | . | ? | -9% | 2% | 2%[46.1 µM]
CN(C)c1ccc(C(=S)NC2CCCCC2)cc1 | -2% | 0% | . | . | . | 50%[activator] | -3% | .
COc1ccccc1C1CC(c2ccco2)=NN1c1ccccc1 (stereo not drawn) | 11% | -33% | -8.7% | ? | ? | -28% | 24% | -1%
O=S(=O)(c1ccc(Oc2ncnc3scc(-c4ccccc4)c23)cc1)N1CCOCC1 | -2% | ? | 0.8% | 5% | ? | -15% | -7% | ?
CCOC(=O)CCCNC(=O)COC(=O)[C@@H]1CCCN1S(=O)(=O)c1ccc(Cl)cc1 | -15% | 10% | -2.1% | ? | 22% | -8% | 0% | ?
COc1ccc2nc(N/C(N)=N/C(=S)Nc3c(C)cccc3C)nc(C)c2c1 | . | 0% | . | . | ? | 22% | -7% | ?
COC(=O)C(O)(c1c(C)[nH]c2ccccc12)C(F)(F)F (stereo not drawn) | 8% | -3% | -1.2% | 0% | 13% | -15% | -1% | 10%
COc1ccccc1NC(=O)/C=C\c1ccco1 | -2% | -1% | . | . | . | 58%[activator] | -8% | .
Cc1ccc(-c2csc(N3CCN(CCCn4c(-c5ccncc5)nc5ccccc54)CC3)n2)cc1 | -38% | -7% | . | . | . | ? | -17% | .
C=CCN(c1ccccc1OC)S(=O)(=O)c1cccc(C(=O)NC2=NCCS2)c1 | . | -91% | . | . | ? | 0% | -10% | ?
CC(=O)Nc1ccc(NCC(=O)c2ccccc2)cc1 | 1% | 0% | . | . | ? | 36%[activator] | -4% | 2%[46.1 µM]
CN(C)c1nc(N)nc(CSc2nnnn2C)n1 | 4% | 2% | 2.9% | 3% | 17%[46.1 µM] | 13% | 4% | 28%
C=CCC1(O)C(=O)Nc2ccccc21 (stereo not drawn) | 6% | 8% | 3.5% | 8% | 20% | 1% | 0% | -1%
Cc1cc(C)n(C(=O)c2cccc(S(=O)(=O)N3CCCCC3)c2)n1 | -4% | 0% | . | . | . | -5% | -11% | .
CC(=O)N1CCc2cc(S(=O)(=O)CCC(=O)N3CCN(c4ccccn4)CC3)ccc21 | -1% | 13% | -2.3% | 14% | ? | -17% | 10% | 2%
Cc1ccc(NC(=O)CNCc2cccs2)c(Br)c1 | -8% | 0% | . | . | . | 51%[activator] | -18% | .
CC(C)CN(C1CCS(=O)(=O)C1)S(=O)(=O)c1ccc(C(C)C)cc1 (stereo not drawn) | . | -8% | . | . | 3%[46.1 µM] | -16% | -19% | ?
CCOCCCNC(=O)c1ccccc1OC1CCN(S(C)(=O)=O)CC1 | 4% | 14% | . | . | . | 17% | 4% | .
CCN1CCCC1CNC(=O)Cn1ncc2c(=O)oc3ccc(C)cc3c21 (stereo not drawn) | -9% | 6% | -4.3% | -3% | . | -2% | -6% | .
COc1ccc(C)cc1NC(=O)CN(C)S(=O)(=O)c1cnc[nH]1 | 7% | ? | 3.4% | -6% | ? | 11% | 2% | 3%
